Screening data as filed in PubChem.
FGF22 binding = shifts melting point of recombinant human FGF22 | 1.5% of 340,000 active | calls only at 9.99 µM | Q9HCT0 | AID 651658 | recombinant FGF22 thermal shift, SYPRO orange fluorescence; percent of sucrose octasulfate shift, DMSO zero;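 active = melting point raised past a set limit in the mean and every replicate; three in four hits are not shown here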
Target sequence (Q9HCT0 whole entry, looked up): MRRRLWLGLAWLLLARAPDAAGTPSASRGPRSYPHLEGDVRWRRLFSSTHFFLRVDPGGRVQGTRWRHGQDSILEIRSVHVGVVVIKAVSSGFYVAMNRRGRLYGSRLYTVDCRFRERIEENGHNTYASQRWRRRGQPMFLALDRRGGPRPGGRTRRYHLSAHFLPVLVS
Ecoli rRNA inh = selective bacterial rRNA inhibition in E. coli | E. coli WT GFP vs humanized-ribosome RFP mutants, fluorescence, 24 h; stronger effect = lower value; DMSO median 0, no signal -100 | GFP signal change (wild-type ribosome), % (no concentration beside the values) | 1.6% of 350,000 active | AID 720706;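 active = significant combined selectivity score with lowered wild-type GFP, culture density cut under 30%, mutant RFP and density less affected; inactive = any of these conditions unmet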; also: one replicate is shown; some compounds called inactive have numbers as strong as hits
MLL AF4-AF9 inh = inhibitors of human MLL-AF4/AF9 interaction; P42568; AlphaScreen, biotin-AF4 peptide binding to FLAG-AF9; inhibition, % at 10 µM; 0.47% of 350,000 active; AID 651704;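 active = every replicate reaching a set inhibition limit, whatever the replicate mean, cut at about 25% in these data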;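 also: 0% = plate neutral control median and 100% = total signal loss; the record names both 10 and 1 µM as test concentration; the first replicate is given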
Target sequence (P42568 whole entry, looked up): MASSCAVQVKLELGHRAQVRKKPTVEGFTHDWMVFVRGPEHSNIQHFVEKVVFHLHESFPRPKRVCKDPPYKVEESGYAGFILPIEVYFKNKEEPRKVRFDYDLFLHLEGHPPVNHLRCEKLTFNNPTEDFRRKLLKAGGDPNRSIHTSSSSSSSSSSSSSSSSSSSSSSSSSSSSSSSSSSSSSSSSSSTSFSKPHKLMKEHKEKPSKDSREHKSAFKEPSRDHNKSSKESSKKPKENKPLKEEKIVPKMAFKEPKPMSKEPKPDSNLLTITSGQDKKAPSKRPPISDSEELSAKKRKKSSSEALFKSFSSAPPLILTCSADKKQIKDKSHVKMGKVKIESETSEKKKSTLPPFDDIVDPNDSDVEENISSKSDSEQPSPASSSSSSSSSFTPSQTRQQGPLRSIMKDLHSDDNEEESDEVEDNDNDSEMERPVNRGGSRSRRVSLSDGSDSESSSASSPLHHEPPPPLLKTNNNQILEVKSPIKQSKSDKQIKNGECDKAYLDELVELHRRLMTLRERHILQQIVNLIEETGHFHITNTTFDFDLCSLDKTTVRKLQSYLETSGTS
Ecoli rRNA inh OD600 = second read-out of Ecoli rRNA inh, no call of its own (marks repeat the call); OD600 change, %; measured here: OD600 growth;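 optical density of the mix in the first replicate; 0 = DMSO median and -100 = no signal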
Ecoli rRNA inh RFP = second read-out of Ecoli rRNA inh, no call of its own (marks repeat the call); RFP signal change, %; measured here: RFP humanized mutant strains;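 first replicate; 0 = DMSO median and -100 = no signal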
Starred values were filed as active, the others as inactive; i = inactive; & = joins results of further samples. A portion of the library; count on the stated rates, not on these rows.

SMILES	FGF22 binding	Ecoli rRNA inh	Ecoli rRNA inh OD600	Ecoli rRNA inh RFP	MLL AF4-AF9 inh
O=C(C[C@@H]1C[C@@H]2c3cc(NS(=O)(=O)c4ccccc4)ccc3O[C@@H]2[C@H](CO)O1)NC1CCCCC1	i	-3	-8	-1.8	2.0
CCCC(=O)N1CCC1(C)C(=O)Nc1ccccc1C(C)(C)C (centres undefined)	i	4	3	2.3	-3.1
O=C(C[C@@H]1C=C[C@@H](NC(=O)c2cccc(F)c2)[C@@H](CO)O1)NCCN1CCCC1	i	6	6	-0.1	-2.3
CO[C@@H]1CN(C)C(=O)c2cc(NS(C)(=O)=O)ccc2OC[C@H](C)N(CCC(F)(F)F)C[C@@H]1C	i	1	4	-2.5	-1.7
CNC[C@@H]1Oc2c(NS(=O)(=O)c3ccc(C)cc3)cccc2C(=O)N([C@H](C)CO)C[C@H]1C	i	1	5	-0.4	-1.9
C[C@H]1CN([C@@H](C)CO)C(=O)c2cc(NC(=O)CCN3CCOCC3)ccc2O[C@@H]1CN(C)C(=O)NC1CCCCC1	i	4	9	2.4	-2.2
Cc1cc(C(=O)Nc2ccc3c(c2)C(=O)N(C)[C@H]2CC[C@H](CC(=O)Nc4ccc(Cl)cc4)O[C@@H]2CO3)no1	i	-1	2	-2.6	-1.0
Cc1ccccc1S(=O)(=O)N1[C@H](C#N)[C@@H](c2ccc(-c3ccccc3)cc2)[C@@H]1CO	i	-2	-33	19	-0.2
C[C@H](CO)N1C[C@H](C)[C@@H](CN(C)CC2CCOCC2)Oc2ncc(-c3ccc(F)cc3)cc2C1=O	i	5	8	-0.9	-1.7
CO[C@@H]1CN(C)C(=O)c2ccc(NC(=O)Nc3cccc(F)c3)cc2OC[C@@H](C)N(C(=O)Nc2c(C)noc2C)C[C@H]1C	i	-5	-3	5.8	-0.4
C[C@H]1CN([C@@H](C)CO)C(=O)c2cc(C#Cc3ccccn3)cnc2O[C@@H]1CN(C)Cc1ccccc1	i	6&1	11&16	1.0&-5.1	1.3&-19
C[C@@H]1CN([C@@H](C)CO)C(=O)c2cc(C3=CCCC3)cnc2O[C@@H]1CN(C)C(=O)CN1CCOCC1	i	6	0	1.6	-0.1
O=C(NCCS(=O)(=O)N1CCN(c2ccccc2)CC1)c1cc(=O)c2ccccc2o1	i	2	2	-0.5	0.8
COc1ccc(S(=O)(=O)N(C)C[C@@H]2OCc3ccccc3-c3ccccc3C(=O)N([C@@H](C)CO)C[C@H]2C)cc1	i	-3	-10	2.8	7.5
C/C=C/c1ccc2c(c1)O[C@@H](CN(C)C(=O)NCCC)[C@@H](C)CN([C@@H](C)CO)S2(=O)=O	i	-4	-3	-2.0	0.6
C[C@@H]1CCCCO[C@H](CN(C)Cc2ccc(C(=O)O)cc2)[C@H](C)CN([C@@H](C)CO)C(=O)c2cc(NC(=O)c3ccncc3)ccc2O1	i	3	1	0.5	-3.5
COc1ccc(CNC(=O)c2[nH]c(C(F)(F)F)nc2-c2ccccc2)cc1OC	i	-12	-2	3.7	1.3
CCC(=O)Nc1ccc2c(c1)C(=O)N(C)C[C@H](OC)[C@H](C)CN(C(=O)c1ccccc1F)[C@H](C)CO2	i	-2	-1	-0.7	1.1
CNC(=O)C[C@@H]1CC[C@@H]2[C@H](COc3ccc(NC(=O)c4ccc(F)c(F)c4)cc3C(=O)N2C)O1	i	-4	5	2.6	-2.7
COc1cccc(NC(=O)Nc2ccc3c(c2)C(=O)N(C)C[C@H](OC)[C@H](C)CN(C)[C@H](C)CO3)c1	i	-3	-4	-0.4	11
CCC(=O)N1C[C@H](C)[C@@H](OC)CN(C)C(=O)c2cc(NC(=O)c3ccc(F)cc3)ccc2OC[C@@H]1C	i	0	2	-1.0	2.1
C[C@H](NC(=O)C[C@@H]1C=C[C@@H](NC(=O)C2CC2)[C@@H](CO)O1)c1ccccc1	i	2	-4	-2.2	1.0
CCCNC(=O)C1(C)CCCN(C(=O)c2cccc(Cl)c2)C1 (centres undefined)	i	6	18	2.0	-3.4
C[C@H]1CN([C@@H](C)CO)C(=O)c2cc(NC(=O)CCN3CCOCC3)ccc2O[C@H]1CN(C)CC1CCCCC1	i	-1	-4	-0.7	-0.2
Cc1ccc(S(=O)(=O)Nc2ccc3c(c2)C(=O)N([C@@H](C)CO)C[C@@H](C)[C@@H](CN(C)CC2CCCCC2)O3)cc1	i	4	2	2.3	-0.6

Grouped by structure, the compounds so far with a CF3 group.
SMILES	FGF22 binding	Ecoli rRNA inh	Ecoli rRNA inh OD600	Ecoli rRNA inh RFP	MLL AF4-AF9 inh
CO[C@@H]1CN(C)C(=O)c2cc(NS(C)(=O)=O)ccc2OC[C@H](C)N(CCC(F)(F)F)C[C@@H]1C	i	1	4	-2.5	-1.7
COc1ccc(CNC(=O)c2[nH]c(C(F)(F)F)nc2-c2ccccc2)cc1OC	i	-12	-2	3.7	1.3

A second format for four compounds above.
| FGF22 binding | Ecoli rRNA inh | Ecoli rRNA inh OD600 | Ecoli rRNA inh RFP | MLL AF4-AF9 inh | canonical_smiles |
| --- | --- | --- | --- | --- | --- |
| i | -4 | 5 | 2.6 | -2.7 | CNC(=O)C[C@@H]1CC[C@@H]2[C@H](COc3ccc(NC(=O)c4ccc(F)c(F)c4)cc3C(=O)N2C)O1 |
| i | 4 | 2 | 2.3 | -0.6 | Cc1ccc(S(=O)(=O)Nc2ccc3c(c2)C(=O)N([C@@H](C)CO)C[C@@H](C)[C@@H](CN(C)CC2CCCCC2)O3)cc1 |
| i | 1 | 5 | -0.4 | -1.9 | CNC[C@@H]1Oc2c(NS(=O)(=O)c3ccc(C)cc3)cccc2C(=O)N([C@H](C)CO)C[C@H]1C |
| i | 4 | 9 | 2.4 | -2.2 | C[C@H]1CN([C@@H](C)CO)C(=O)c2cc(NC(=O)CCN3CCOCC3)ccc2O[C@@H]1CN(C)C(=O)NC1CCCCC1 |

More results
SMILES	FGF22 binding	Ecoli rRNA inh	Ecoli rRNA inh OD600	Ecoli rRNA inh RFP	MLL AF4-AF9 inh
C[C@H](O)C#Cc1cnc2c(c1)C(=O)N([C@@H](C)CO)C[C@@H](C)[C@@H](CN(C)Cc1cncnc1)O2	i	2	3	-1.0	-2.6
CCOC(=O)[C@]12CCCC=C1N(Cc1ccc3c(c1)OCO3)C(=O)[C@H](CC(=O)N1CCCC1)C2	i	4	10	4.2	-2.4
COc1ccc(S(=O)(=O)N(C)C[C@@H]2Oc3ncc(-c4cccc(F)c4)cc3C(=O)N([C@H](C)CO)C[C@@H]2C)cc1	i	-4	-8	1.4	-0.5
C[C@H]1CN([C@@H](C)CO)S(=O)(=O)c2ccc(-c3cncnc3)cc2O[C@@H]1CN(C)Cc1ccncc1	i	-2	-6	-2.3	1.7
C[C@@H]1CN([C@H](C)CO)C(=O)c2cc(NC(=O)Nc3cccc4ccccc34)ccc2O[C@H]1CN(C)Cc1ccc(Cl)c(Cl)c1	i	1	4	-1.8	-2.4
CN(C)C(=O)C[C@H]1CC[C@H](NC(=O)C2CCOCC2)[C@@H](CO)O1	i	0	5	0.1	-1.3
C/C=C/c1cnc2c(c1)C(=O)N([C@H](C)CO)C[C@H](C)[C@@H](CN(C)C(=O)NCCC)O2	i	0	5	0.8	0.0
O=C(C[C@@H]1C=C[C@@H](NS(=O)(=O)c2ccc(F)cc2)[C@H](CO)O1)NCc1ccc(Cl)c(Cl)c1	i	-8	-25	0.5	-0.6
CO[C@H](CN(C)Cc1nccs1)[C@H](C)CN([C@H](C)CO)S(=O)(=O)c1ccc(C)cc1	i	-4	2	-6.5	2.8
CC(C)NC(=O)N1Cc2cc(C(=O)NC3CCC3)nc(-c3cccc(-c4cncnc4)c3)c2[C@H]1CCO	i	-14	-9	8.0	-1.3
CO[C@H]1CN(C)C(=O)c2cc(NC(=O)Nc3cc(F)ccc3F)ccc2OC[C@@H](C)N(C(=O)c2cnccn2)C[C@@H]1C	i	-2	-1	4.2	2.6
COc1ccc(S(=O)(=O)N2CCC(C(=O)N[C@@H](C)C(=O)NCc3cccnc3)CC2)cc1	i	5	26	3.7	-3.3
Cc1noc(C)c1NC(=O)N[C@H]1CC[C@H](CC(=O)Nc2ccc(-c3ccccc3)cc2)O[C@H]1CO	i	-6	-6	-2.5	-21
N#Cc1cccc(-c2ccc3c(c2)[C@@H]2[C@@H](CCN2C(=O)C2CCCCC2)[C@@H](CO)N3)c1	i	-11	-26	5.8	-1.3
C[C@@H]1CN([C@@H](C)CO)C(=O)Cc2cc(NC(=O)Nc3ccc4c(c3)OCO4)ccc2O[C@H]1CN(C)Cc1ccc(C(=O)O)cc1	i	3	13	-1.9	1.9
CC=Cc1ccc2n(c1=O)C[C@H]1[C@H](CO)[C@@H](C(=O)N[C@H](C)c3ccccc3)N(C(=O)c3ccccn3)[C@@H]21 (mixture of isomers)	i	-4	-1	-1.0	0.1
Cc1noc(C)c1NC(=O)N(C)C[C@H]1Oc2ccc(NC(=O)Cc3cn(C)c4ccccc34)cc2C(=O)N([C@@H](C)CO)C[C@H]1C	i	3	7	0.0	-9.5
O=C(c1cccs1)N1C[C@@H](n2cc(-c3ccc(F)cc3)nn2)[C@H](O)C[C@@H]1c1ccc(Cl)cc1	i	3	3	1.4	0.6
Cc1noc(C)c1NC(=O)Nc1ccc2c(c1)CC(=O)N([C@@H](C)CO)C[C@H](C)[C@@H](CN(C)C(=O)Nc1ccc(F)cc1)O2	i	7	14	0.7	2.1
CC(=O)N(C)C[C@H]1Oc2ncc(C#Cc3ccccc3F)cc2C(=O)N([C@@H](C)CO)C[C@@H]1C	i	-4	8	-1.0	0.7
COc1ccc(-c2ccc3nncn3c2)cn1	i	13	18	1.3	1.2
CS(=O)(=O)Nc1ccc(-c2cnc3cccnn23)cc1	i	2	9	0.6	-4.1
COc1ccc(NC(=O)N(C)C[C@H]2OCCCC[C@H](C)Oc3ccc(NS(=O)(=O)c4ccc(F)cc4)cc3C(=O)N([C@H](C)CO)C[C@@H]2C)cc1	i	2	7	3.0	2.6
CCN(CC)C(=O)C1=C(C)N(CCCOC)C(=O)C(CC(=O)NCCN2CCOCC2)C1 (centres undefined)	i	14	4	0.5	0.1
CCC(=O)N(CC(C)C)C[C@H]1[C@H](c2ccccc2)[C@@H](CO)N1C(=O)C1CCC1	i	2	6	0.0	-1.8
Next results follow.
SMILES	FGF22 binding	Ecoli rRNA inh	Ecoli rRNA inh OD600	Ecoli rRNA inh RFP	MLL AF4-AF9 inh
C[C@@H]1CN([C@H](C)CO)C(=O)c2cc(NC(=O)Nc3ccccc3)ccc2O[C@@H]1CN(C)S(=O)(=O)c1ccc(Cl)cc1	i	1	-9	2.6	0.2
C[C@H](CO)N1C[C@H](C)[C@H](CN(C)Cc2ccc3c(c2)OCO3)Oc2ccc(NC(=O)Cc3ccccc3)cc2C1=O	i	0	-9	-0.4	-1.3
CCC(=O)N1C[C@@H](C)[C@H](OC)CN(C)C(=O)c2ccc(NC(=O)c3ccc(F)cc3)cc2OC[C@H]1C	i	0	9	-4.5	-1.7
COc1ccccc1S(=O)(=O)N(C)C[C@H]1OCc2cnnn2CCCC(=O)N([C@@H](C)CO)C[C@@H]1C	i	23&-2	10&7	-1.1&-1.0	0.9&-4.6
COc1cccc(C(NC(C)=O)c2nc(-c3cc4ccccc4o3)cs2)c1 (centres undefined)	i	1	14	-1.5	-0.6
Cn1cnc(S(=O)(=O)N2C[C@H](O)COC[C@H]3O[C@@H](CC(=O)NC4CCCC4)CC[C@@H]32)c1	i	5	13	-1.3	-1.5
CCCNC(=O)[C@H]1[C@H](CO)[C@H]2Cn3c(cccc3=O)[C@H]2N1CCC(F)(F)F	i	2	7	-2.0	0.0
COc1ccc(C(C)=O)cc1Cn1c(C)c(C(=O)NCc2cccc(C(F)(F)F)c2)sc1=O	i	-4	-4	-6.8	-1.8
CC(=O)Nc1ccc2c(c1)C(=O)N(C)[C@@H]1CC[C@@H](CC(=O)NCC3CC3)O[C@@H]1CO2	i	0	10	-1.2	-1.7
O=C(NC1CCCCC1)C(c1ccnc2ccccc12)N1CCc2ccccc2C1 (centres undefined)	i	0	4	-0.9	3.5
O=C(Nc1ccc(Oc2ccccc2)cc1)c1csc([C@@H]2O[C@H](CO)[C@@H](O)[C@H]2O)n1	i	-31*	-16*	2.3*	-0.4
CN(C)C(=O)C[C@H]1C[C@H]2c3cc(NC(=O)C4CCC4)ccc3O[C@H]2[C@H](CO)O1	i	1	8	-0.2	0.1
CO[C@@H]1CC[C@@H]2CCN(C)C(=O)[C@H](C)CN(C)C(=O)c3cccc(C#N)c3OC[C@H]1O2	i	2	-7	0.1	2.7
Cc1ccc(Cc2c(-c3ccc(Cl)cc3)nc3cc(C)ccn23)cc1	i	0	-10	8.8	-1.8
COc1cccc(C#Cc2ccc([C@@H]3[C@H]4CN(S(=O)(=O)c5ccccc5C)CC(=O)N4[C@H]3CO)cc2)c1	i	2	4	0.7	-2.7
COc1cccc(NC(=O)N2C[C@@H](O)COC[C@H]3O[C@@H](CC(=O)NC4CCC4)CC[C@@H]32)c1	i	0	3	-4.8	-2.4
CC(C)CC#Cc1ccc([C@@H]2[C@@H](CO)N3C(=O)CN(C(=O)Nc4cc(F)ccc4F)C[C@H]23)cc1	i	-12	-44	6.6	-0.9
CO[C@@H]1CN(C)C(=O)c2ccc(NC(=O)Cc3ccccc3)cc2OC[C@H](C)N(C(C)=O)C[C@H]1C	i	2	4	-1.4	1.3
